Screening data (PubChem BioAssay)
Rango-impB inh: prevents formation of the Rango-importin beta complex. Q14974. Rango CFP/YFP FRET sensor + importin beta, 45 min. Potency, µM (top dose mostly 92.2 µM), for the others: top-dose inhibition of complex formation. 340,000 tested, 0.031% active; active = rising FRET ratio curve, often small or poorly fitted; inconclusive = mostly compound fluorescence or quenching in the first reads; inactive = flat curves in all reads;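 also: potency is read from the fitted curve at half-maximal effect; 0% = DMSO wells and 100% = buffer wells lacking importin beta; nearly all actives have a fitted effect of over 15% in size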
Target sequence (Q14974 whole entry, looked up): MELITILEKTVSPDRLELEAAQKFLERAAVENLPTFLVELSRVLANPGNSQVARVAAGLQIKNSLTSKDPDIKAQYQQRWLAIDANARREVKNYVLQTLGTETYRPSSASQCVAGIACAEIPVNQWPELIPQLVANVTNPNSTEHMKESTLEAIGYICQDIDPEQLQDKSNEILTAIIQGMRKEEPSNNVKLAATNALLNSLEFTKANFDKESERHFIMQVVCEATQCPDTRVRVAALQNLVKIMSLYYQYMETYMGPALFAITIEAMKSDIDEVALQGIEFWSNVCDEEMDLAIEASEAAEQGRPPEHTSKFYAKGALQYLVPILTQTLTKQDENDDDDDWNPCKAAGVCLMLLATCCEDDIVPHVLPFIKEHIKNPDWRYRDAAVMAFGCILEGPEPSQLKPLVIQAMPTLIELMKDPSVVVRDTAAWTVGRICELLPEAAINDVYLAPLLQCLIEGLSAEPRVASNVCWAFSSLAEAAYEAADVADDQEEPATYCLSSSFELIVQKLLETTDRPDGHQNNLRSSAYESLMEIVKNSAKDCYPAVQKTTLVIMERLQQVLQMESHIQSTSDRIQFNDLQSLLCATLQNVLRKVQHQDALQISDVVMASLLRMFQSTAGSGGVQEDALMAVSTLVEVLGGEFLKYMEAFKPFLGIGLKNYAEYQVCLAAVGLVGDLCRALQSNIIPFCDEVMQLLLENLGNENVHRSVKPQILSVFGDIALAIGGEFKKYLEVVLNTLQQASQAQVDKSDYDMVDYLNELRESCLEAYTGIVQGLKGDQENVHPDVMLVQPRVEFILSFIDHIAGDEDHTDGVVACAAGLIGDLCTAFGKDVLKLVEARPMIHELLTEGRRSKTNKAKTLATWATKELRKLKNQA
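FRET biosensor (snurportin 1 IBB flanked by EYFP and cerulean), 50 nM, with compound 5 min, then 0.125 microM importin beta in PBS, 1 mM DTT, 0.02% Tween-20, 0.1% BSA. CFP/YFP ratio read after 45 min at room temperature; pre-read flags interference.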
GLA inh pH 4.5: alpha-galactosidase A (human) inhibition, pH 4.5 | purified enzyme, 4-MU-alpha-Gal fluorescence, pH 4.5 | activity change, negative = inhibition, % at 105 µM | 230,000 tested, under 10 active; inconclusive = small, poorly fitted or top-dose-only inhibition, or a rising curve; inactive = flat fitted curve, though single readings scatter; no compound was filed as active;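 also: 0% = full activity with enzyme and -100% = basal without enzyme; dose as in the result columns while the protocol names 77 µM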
miR-21 FLuc: miR-21 reporter, rising signal; HeLa miR-21 FLuc reporter, luciferase, 48 h; Potency, µM (highest dose often 38.3 µM), for inactives: at the highest dose reporter change, positive = more light; 340,000 tested, under 10 active; active = well fitted rising curve with a large enough effect; inconclusive = small, poorly fitted or top-dose-only effect; inactive = no such curve, though single readings can be large or run the other way;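 also: % of control where 0% means no effect; miR-21 action dims this reporter so a rising signal means less miR-21 action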
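HeLa cells endogenously expressing miR-21, stably carrying CMV-driven firefly luciferase with a downstream miR-21 binding site, 2000 cells/well. Titrations up to approximately 40 uM, 48 hours; luciferase luminescence read.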
Rango release inh: prevents RanGTP from dissociating the Rango-importin beta complex. Potency, µM (top dose mostly 46.1 µM), for the others: at the top dose activity change, negative = inhibition. 340,000 tested, 0.071% active. O95149+P62826. Biochemical FRET Rango-importin beta, RanGTP-induced dissociation; active means falling FRET ratio curve, often poorly fitted, with flat reads before Ran was added; inconclusive means other falling curves, or compound fluorescence or quenching; inactive means flat or rising ratio curve;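 also: potency is read from the fitted curve at half-maximal effect; % of control where 0% means no effect; nearly all actives have a fitted effect of over 45% in size; -100% = wells without RanGTP and RCC1; the record marks most hits as doubtful in a second field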
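Rango (0.1 uM)–importin beta (0.25 uM) complex; RanGTP-RCC1 trigger; 45 min RT; CFP/YFP FRET read.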
* marks the source's active call; other numbers are inactive results; u = inconclusive; x = not tested or not shown; & = joins results of further samples. An excerpt (hit frequency here may not be typical).

miR-21 FLuc,Rango-impB inh,GLA inh pH 4.5,Rango release inh,mol
-8%,2.1%,-2,8%,COC(=O)c1ccc(C(=O)OC)c(NC(=O)CN(c2ccc3c(c2)OCO3)S(C)(=O)=O)c1
-6%,3.4%,0,-7%,CC(C)CCN1CCNC(=O)C1CC(=O)Nc1ccc(F)cc1 (stereo not given)
x,-1.6%,x,-1%,COc1ccc(CN2C[C@]3(CO)O[C@@H](CO)C[C@@H]3S2(=O)=O)cc1
-1%,-0.1%,-3,1%,O=C(c1ccco1)N(CCC(c1ccccc1)c1ccco1)Cc1ccccc1 (stereo not given)
-20%,3.4%,-2,-4%,C=CCNC(=S)NNC(=O)c1cccn(Cc2ccc(Cl)c(Cl)c2)c1=O
-4%,-0.8%,-2,8%,COc1ccc(C(=O)NC(C)c2ccccc2)cc1Br (stereo not given)
-62%,-12%,7,u,COc1cc(O)sc1C=Nc1ccc(Cl)cc1
0%,-0.3%,x,0%,O=C(NC1CCN(S(=O)(=O)c2cccc(F)c2)CC1)c1cccc(F)c1
-4%,-2.5%,1,-11%,COc1cc(CC(=O)NCc2ccccn2)cc(OC)c1OC
-1%,1.7%,-9,0%,CN(Cc1ccccc1)C(=O)CNC(=O)Cn1cnc2ccccc2c1=O
-9%,-0.9%,-6,4%,CC(OC(=O)CCCCCN=C1NS(=O)(=O)c2ccccc21)C(=O)Nc1cc(Cl)cc(Cl)c1 (stereo not given)
x,-4.6%,x,-2%,Cc1ccc(Cn2c(C(C)Nc3nc(-c4ccc(F)cc4)cs3)nc3cc(Cl)c(Cl)cc32)cc1 (stereo not given)
-18%,2.1%,1,-10%,O=C(NCc1ccc2c(c1)OCO2)NC12CC3CC(CC(C3)C1)C2
-9%,0.7%,7,-1%,CCOC(=O)C1CCN(C(=O)c2ccc(Cl)c(Cl)c2)CC1
0%,-0.8%,0,4%,COc1ccc2nc(NC(=O)c3cccs3)sc2c1
x,u,x,u,O=C(NC1CC1)c1cccc2c1C(=O)c1ccc(N3CCC(Cc4ccccc4)CC3)cc1S2(=O)=O
5%,-2.1%,-7,1%,CCN(CC)CCNC(=O)/C(=C/c1cn(CC)c2ccccc12)NC(=O)c1cc(OC)c(OC)c(OC)c1
0%,-0.1%,-1,-5%,COc1ccc(N2CCN(CCNC(=O)CCN3C(=O)COc4ccccc43)CC2)cc1
9%,3.5%,-5,-7%,COCCNC(=O)/C(C#N)=C/c1cc(C(C)C)c(OC)cc1C
x,-0.4%,x,-5%,O=C1CN(C(=O)COC(=O)c2cccs2)c2ccccc2N1
-5%,-0.7%,4,3%,O=C(CSc1ncn[nH]1)Nc1nc(-c2ccccc2)cs1
x,2.4%,x,-13%,Cc1ccc(S(=O)(=O)Nc2cccc(C(=O)NCC(c3ccco3)N(C)C)c2)cc1F (stereo not given)
-7%,2.9%,x,-22%,Cc1sc2ccccc2[n+]1CC(=O)c1ccccc1
x,-4.3%,x,10%,Cc1nc(NC(=O)COC(=O)C(C)NC(=O)c2ccccc2)c(Cl)cc1Cl (stereo not given)
-32%,0.2%,x,7%,Cc1ccccc1C(=O)NCCOc1ccccc1Cl
-2%,-2.5%,x,-4%,Cc1cc(C)c(OCC(=O)N(Cc2cccs2)C2CCS(=O)(=O)C2)c(C)c1 (stereo not given)
-16%,-3.1%,x,-1%,COc1ccccc1NC(=O)Cc1cccc2ccccc12
x,3.8%,x,26%,CCOc1ccc(-c2cc(C(=O)N/N=C/c3ccc(O)cc3)c3ccccc3n2)cc1
-8%,0.0%,0,24%,O=C(c1ccc(Br)o1)N1CCN=C1SCc1cccc(F)c1
-2%,1.6%,3,-8%,O=C1CCc2cc(S(=O)(=O)N3CCN(Cc4ccc5c(c4)OCO5)CC3)ccc2N1
25%,5.9%,x,-2%,Cc1cccc(N2CCN(C(=O)c3cc(S(=O)(=O)N4CCCC4)cn3C)CC2)c1C
-39%,0.6%,-2,-2%,Cc1[nH]n(-c2cccc(Cl)c2)c(=O)c1C=NCc1ccco1
-13%,0.2%,x,u,Cc1ccc(S(=O)(=O)N(C)C)cc1NC(=O)CN1C(=O)NC2(CCCCCCC2)C1=O
-52%&-38%,3.2%,x,4%,COc1ccc(CNC(=O)Cn2cccc2C(=O)c2ccccc2C)cc1
5%,0.0%,x,2%,COc1ccc(CNC(=O)CN2C(=O)NC(C)(c3cccc4ccccc34)C2=O)cc1OC (stereo not given)
-51%,-8.6%,-14,2%,CC(Cc1ccccc1)NC(=O)c1ccc([N+](=O)[O-])cc1 (stereo not given)

Entries from the list above that contain fluorine (five):
miR-21 FLuc,Rango-impB inh,GLA inh pH 4.5,Rango release inh,mol
-6%,3.4%,0,-7%,CC(C)CCN1CCNC(=O)C1CC(=O)Nc1ccc(F)cc1 (stereo not given)
0%,-0.3%,x,0%,O=C(NC1CCN(S(=O)(=O)c2cccc(F)c2)CC1)c1cccc(F)c1
x,-4.6%,x,-2%,Cc1ccc(Cn2c(C(C)Nc3nc(-c4ccc(F)cc4)cs3)nc3cc(Cl)c(Cl)cc32)cc1 (stereo not given)
x,2.4%,x,-13%,Cc1ccc(S(=O)(=O)Nc2cccc(C(=O)NCC(c3ccco3)N(C)C)c2)cc1F (stereo not given)
-8%,0.0%,0,24%,O=C(c1ccc(Br)o1)N1CCN=C1SCc1cccc(F)c1

(further entries)
miR-21 FLuc,Rango-impB inh,GLA inh pH 4.5,Rango release inh,mol
2%,-2.4%,x,3%,COc1cc(OC)c(C(=O)OCC(=O)NC2CCCC2)cc1OC
x,5.0%,x,1%,Cc1ccc(OCC(=O)Nc2ccccc2F)cc1
14%,-3.4%,-11,-7%,COc1ccc2nc(NC(=O)CCc3cc(OC)c(OC)c(OC)c3)sc2c1
-1%,1.0%,3,5%,CCC1N=C(SC)NC(C)=C1C(=O)c1ccccc1 (stereo not given)
-2%,3.2%,-3,7%,CCN(c1ccccc1)S(=O)(=O)c1ccc(Cl)c(NC(=O)CSc2n[nH]c(N)n2)c1
4%,0.9%,4,33%,CC1(C)CC(=O)C(C2C3=C(CC(C)(C)CC3=O)Oc3ccccc32)=C(O)C1 (stereo not given)
1%,-0.3%,-6,0%,CCC1SC(N)=NC1=O (stereo not given)
-6%,-1.0%,x,12%,COc1ccccc1NC(=O)CS(=O)(=O)c1cn(CC(=O)N2CCCC2)c2ccccc12
-11%,u,10,u,CCc1c(C)sc(NC(=O)/C=C/c2ccc3c(c2)OCO3)c1C(=O)OC
2%,-0.6%,3,0%,COc1ccc([N+](=O)[O-])cc1N(CC(=O)N1CCOCC1)S(C)(=O)=O
-6%,5.9%,7,-16%,O=C(O)COc1ccccc1C(Nc1ccccn1)c1cc(Cl)c2cccnc2c1O (stereo not given)
-43%,0.1%,x,11%,COc1ccccc1-c1nnc(SCC(=O)N2CCCCC2)o1

An excerpt of these results, with two lines to a compound.
Each structure is followed by: miR-21 FLuc | Rango-impB inh | GLA inh pH 4.5 | Rango release inh
COc1ccc2nc(NC(=O)CCc3cc(OC)c(OC)c(OC)c3)sc2c1
→ 14% | -3.4% | -11 | -7%
CCC1N=C(SC)NC(C)=C1C(=O)c1ccccc1 (stereo not given)
→ -1% | 1.0% | 3 | 5%
CCN(c1ccccc1)S(=O)(=O)c1ccc(Cl)c(NC(=O)CSc2n[nH]c(N)n2)c1
→ -2% | 3.2% | -3 | 7%
CC1(C)CC(=O)C(C2C3=C(CC(C)(C)CC3=O)Oc3ccccc32)=C(O)C1 (stereo not given)
→ 4% | 0.9% | 4 | 33%
CCC1SC(N)=NC1=O (stereo not given)
→ 1% | -0.3% | -6 | 0%

Next part.
miR-21 FLuc,Rango-impB inh,GLA inh pH 4.5,Rango release inh,mol
17%,2.0%,1,1%,O=C(COC(=O)C1CC(=O)N(Cc2ccccc2)C1)Nc1ccc2c(c1)OCO2 (stereo not given)
3%,1.2%,x,-13%,COc1cc(/C=N/N2CCN(Cc3ccc(C)cc3)CC2)cc(OC)c1O
-46%,0.7%,-5,4%,COc1ccc(/C=N/Nc2nc3ccccc3c(=O)n2-c2ccccc2)cc1OC
-9%,-1.6%,-5,-2%,O=C(CC(Nc1ccccc1)c1ccc(F)cc1)c1ccccc1 (stereo not given)
-9%,0.3%,-5,15%,O=C(NCc1ccc(Cl)cc1)c1ccc(-c2ccccc2C(F)(F)F)o1
-1%&2%,-4.9%,x,4%,COC(=O)C1=C(C)N(Cc2ccccc2)C(=NCc2cccc(Cl)c2)N[C@H]1c1ccccc1
x,1.2%,x,18%,COc1cccc(CN(C)C(=O)CCN=C2NS(=O)(=O)c3ccccc32)c1OC
-4%,-1.9%,-2,3%,Cc1cc(Cl)c(OCCCN(C)C)c(Br)c1
-38%,u,-6,-4%,COc1ccc(NC(=O)C(=O)NNC(=O)c2cccs2)cc1
-2%,3.5%,x,10%,CC(C)(CNc1ccc(C(F)(F)F)cc1[N+](=O)[O-])N1CCOCC1
1%,5.0%,x,-5%,COc1cccc(CNC(=O)CN2C(=O)COc3ccc(S(=O)(=O)N4CCC(C)CC4)cc32)c1
-8%,-1.7%,2,-2%,CCN(Cc1ccccc1)C(=O)C1CCN(Cc2ccc(SC)cc2)CC1

One compound at a time, as listed above.
COc1ccc(NC(=O)C(=O)NNC(=O)c2cccs2)cc1 as listed: miR-21 FLuc: -38%; Rango-impB inh: u; GLA inh pH 4.5: -6; Rango release inh: -4%
CC(C)(CNc1ccc(C(F)(F)F)cc1[N+](=O)[O-])N1CCOCC1 as listed: miR-21 FLuc: -2%; Rango-impB inh: 3.5%; GLA inh pH 4.5: x; Rango release inh: 10%

Next records
miR-21 FLuc,Rango-impB inh,GLA inh pH 4.5,Rango release inh,mol
x,-0.4%,x,-11%,CCOc1ccc(OCCC(=O)OCC(=O)Nc2cc(OCC)c(N3CCOCC3)cc2OCC)cc1
1%,0.3%,-1,-10%,COc1ccccc1NC(=O)C(C)NS(=O)(=O)c1ccc(F)cc1 (stereo not given)
-8%,-0.2%,-3,24%,CC(C)=C(NC(=O)c1ccccc1Br)C(=O)NCCc1nc2ccccc2[nH]1
0%,-1.4%,x,2%,CCOc1nc(Nc2ccc(OC)cc2OC)nc(OCC)n1
0%,0.0%,x,2%,O=C(NCc1ccccc1)C(c1ccco1)N(C(=O)c1ccccn1)c1ccccc1 (stereo not given)
5%&-9%,-0.3%,0,u,COc1ccc(Cn2c(CCC(=O)Nc3ccc(C)cc3)nc3cccnc32)cc1
x,0.0%,x,-7%,CC1CCN(S(=O)(=O)c2ccc(NC(=O)Cc3ccc(S(=O)(=O)N4CCOCC4)s3)cc2)CC1
-2%,-2.7%,x,-18%,CCOC(=O)N1CCN(C(=O)CCS(=O)(=O)c2cc3c(cc2Cl)NC(=O)CO3)CC1
x,-0.3%,x,11%,O=C(NOCc1cscn1)Nc1ccccc1
-3%,0.3%,-5,-9%,CCn1c(CNc2nc(-c3ccccc3)cs2)nnc1SCC(=O)NCc1ccco1
-8%,1.3%,x,1%,CCc1c(C)c2ccc(OCC(=O)NCC3CCC(C(=O)O)CC3)c(C)c2oc1=O (stereo not given)
25%,-3.8%,x,11%,CC(=O)Nc1ccc(S(=O)(=O)N2CCN(c3ccc([N+](=O)[O-])cc3)CC2)cc1
-34%,0.0%,-9,-3%,c1ccc(-c2nc3c([nH]2)CCc2nonc2-3)cc1
-3%,-0.9%,2,-1%,O=C1CCc2nc3ccccc3c(=O)n2N1
-63%,1.3%,-4,2%,Cc1nn(-c2cccc(C(F)(F)F)c2)c(Cl)c1/C=N/Nc1cccc(C(=O)O)c1
